NPYLR7 ag: activates Aedes aegypti NPYLR7 receptor; HEK293T NPYLR7/Galpha15, GCaMP6s calcium fluorescence; activation, % at 10 µM; 270,000 compounds, 0.15% hits; AID 1259423; in the data active = activation above about 40%;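 also: 0% = vehicle and 100% = reference agonist at the receptor; some compounds past the cut are filed as inactive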
NPYLR7 ag max-min: recorded beside NPYLR7 ag, whose call it bears; activation, %; measured here: Max-Min RFU normalised activation; some inactives read as strong as hits;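 span of the calcium signal over five minutes; 0% = vehicle and 100% = native peptide agonist; compound fluorescence can raise it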
* = called active by the depositor. Not all compounds are listed. The share of hits here may be higher or lower than overall.

How did COc1ccc2cc(-c3nnc(Nc4ccc(C)cc4)s3)c(=O)oc2c1 do in these assays?
NPYLR7 ag: -13.7; NPYLR7 ag max-min: -15.3

How did O=C(Cn1cnc2sccc2c1=O)NC(=O)NC1CCCCC1 do in these assays?
NPYLR7 ag: 5.0; NPYLR7 ag max-min: 7.5

How did Nc1nc2ccc(-c3nc4ccccc4o3)cc2s1 do in these assays?
NPYLR7 ag: 0.3; NPYLR7 ag max-min: -2.8

Results for N#Cc1cccc(S(=O)(=O)N(Cc2c(F)cccc2Cl)c2cn[nH]c2)c1 ?
NPYLR7 ag: -2.0; NPYLR7 ag max-min: -18.0

Results for CC1=C(C(=O)N2CCCC(CCC(=O)N3CCN(c4ccccn4)CC3)C2)OCCO1 (stereo not drawn) ?
NPYLR7 ag: 20.0; NPYLR7 ag max-min: 5.0

What do the screens show for `CCOc1ccc(C(=O)N2CCN(c3ncnc4c3nnn4-c3ccccc3)CC2)cc1`?
NPYLR7 ag: -8.6; NPYLR7 ag max-min: -17.4

Results for CC(C)(C)c1ccc(C(=O)Nc2c3c(nn2CC(=O)NCc2ccco2)CSC3)cc1 ?
NPYLR7 ag: -2.4; NPYLR7 ag max-min: 5.1

How did CC(Sc1nc2c([nH]c3ccccc32)c(=O)n1C)c1ccccc1 (stereo not drawn) do in these assays?
NPYLR7 ag: 0.1; NPYLR7 ag max-min: 11.9

Results for CC1=C[C@@H](CO)[C@H](C(C)C)C[C@H]1CC(=O)N(C)CCC#N ?
NPYLR7 ag: -12.4; NPYLR7 ag max-min: -16.0

What do the screens show for `COc1ccccc1CCc1nc(CC2CCN(C)CC2)no1`?
NPYLR7 ag: 1.8; NPYLR7 ag max-min: 0.7

How did COc1ccc(Cl)cc1C1=NOCC(=O)N1Cc1ccc(C)cc1 do in these assays?
NPYLR7 ag: 7.9; NPYLR7 ag max-min: 3.6

How did O=S(=O)(NCc1ccccc1)N1CCC(Cc2noc(C3CC3)n2)CC1 do in these assays?
NPYLR7 ag: 1.7; NPYLR7 ag max-min: 0.8

What do the screens show for `OCC1OC(Oc2ccccc2Cl)C(O)C(O)C1O` (stereo not drawn)?
NPYLR7 ag: 0.1; NPYLR7 ag max-min: 5.1

What do the screens show for `CCC(C)N(Cc1ccc(OS(=O)(=O)c2cccc(C(F)(F)F)c2)cc1)C(=O)c1cccc(C(F)(F)F)c1` (stereo not drawn)?
NPYLR7 ag: 6.0; NPYLR7 ag max-min: 16.6

How did Cc1cc(C)n2c(=S)[nH]nc2n1 do in these assays?
NPYLR7 ag: -6.4; NPYLR7 ag max-min: -10.5

How did CCC(CC)(CNC(=O)c1ccc(F)nc1)S(C)(=O)=O do in these assays?
NPYLR7 ag: 4.1; NPYLR7 ag max-min: 1.8

Results for COCC(=O)Nc1nnc(SCC(=O)c2ccc(F)cc2)s1 ?
NPYLR7 ag: -0.7; NPYLR7 ag max-min: 1.7

Results for CCCc1cc(CNc2nc(CCN)nc3ccccc23)on1 ?
NPYLR7 ag: 21.7; NPYLR7 ag max-min: 10.3

How did N#Cc1c(COC(=O)c2ccc3c(c2)NC(=O)CO3)cn2ccccc12 do in these assays?
NPYLR7 ag: 3.8; NPYLR7 ag max-min: 1.7

Results for COCCN1CCN(c2nc(C(=O)N3CCCC3)cs2)C1=O ?
NPYLR7 ag: -4.6; NPYLR7 ag max-min: -3.4

What do the screens show for `COc1cccc(C(C2Sc3nc(-c4ccco4)nn3C2=O)N2CC(C)OC(C)C2)c1` (stereo not drawn)?
NPYLR7 ag: -3.0; NPYLR7 ag max-min: -3.0

What do the screens show for `COc1cccc(-c2ccc3c(c2)N(Cc2ccccc2OC)C(=O)C(C)S3)c1` (stereo not drawn)?
NPYLR7 ag: -5.1; NPYLR7 ag max-min: -5.0

How did CC(C)(C)CC(=O)N1CCN(c2nc(-c3ccc(Cl)cc3)nc3ccccc23)CC1 do in these assays?
NPYLR7 ag: 7.8; NPYLR7 ag max-min: 16.7

Results for O=C(CC(c1ccccc1)c1cn(Cc2ccccc2)c2ccc([N+](=O)[O-])cc12)NCc1ccco1 (stereo not drawn) ?
NPYLR7 ag: -2.9; NPYLR7 ag max-min: 5.6

What do the screens show for `CCOc1ccc(S(=O)(=O)N2CCN(C(=O)c3sccc3-n3cccc3)CC2)cc1OCC`?
NPYLR7 ag: -3.3; NPYLR7 ag max-min: -2.6

Results for OC(COc1ccc2ccccc2c1)Cn1ccnc1 (stereo not drawn) ?
NPYLR7 ag: 5.0; NPYLR7 ag max-min: 0.6

What do the screens show for `Cc1cc(C)n2c(NC3CCCCC3)c(-c3ccc4c(c3)OCO4)nc2c1`?
NPYLR7 ag: 24.3; NPYLR7 ag max-min: 34.4

How did N#Cc1cccc(C(=O)NC2CC(=O)N(Cc3ccccc3)C2)c1 (stereo not drawn) do in these assays?
NPYLR7 ag: 6.7; NPYLR7 ag max-min: 2.1

Results for CC1(C)OCC(CNC(=O)c2nccc3ccccc23)O1 (stereo not drawn) ?
NPYLR7 ag: 11.5; NPYLR7 ag max-min: 5.2

Results for CC(C)(C)c1nc(SCc2nnc(C(C)(C)C)o2)n[nH]1 ?
NPYLR7 ag: -1.5; NPYLR7 ag max-min: -1.9

What do the screens show for `Cc1ccc(-c2nc3cc(C)ccn3c2NC(=O)c2cc(Cl)cc(Cl)c2)cc1`?
NPYLR7 ag: -0.4; NPYLR7 ag max-min: 3.2

What do the screens show for `CCCCCCCC(=O)Nc1ccc(N2CCC(Cc3ccccc3)CC2)c(C(=O)NCCN2CCOCC2)c1`?
NPYLR7 ag: 17.0; NPYLR7 ag max-min: 27.0

What do the screens show for `COc1ccccc1OCCCOc1ccc(Cl)cc1Cl`?
NPYLR7 ag: 7.5; NPYLR7 ag max-min: 6.4

Results for CCN1CCN(c2c(CN(C(=O)c3ccc4ccccc4c3)C3CC3)c(C)nn2-c2cccc(F)c2)CC1 ?
NPYLR7 ag: 17.7; NPYLR7 ag max-min: 22.5

How did Cc1cc(N2CCN(C(=O)CCc3ccccc3)CC2)nc(-c2cccc(F)c2)n1 do in these assays?
NPYLR7 ag: 2.7; NPYLR7 ag max-min: 12.7

How did CCCCCCNC(=O)Cc1ccc(Oc2nc(Cc3cccc(OC)c3)ns2)cc1 do in these assays?
NPYLR7 ag: 0.2; NPYLR7 ag max-min: 4.3

What do the screens show for `CCN(Cc1noc(CC(C)C)n1)C(=O)c1cc2c([nH]c1=O)CCCC2`?
NPYLR7 ag: 3.3; NPYLR7 ag max-min: 0.6

What do the screens show for `Cc1ccn(CCC(=O)NCc2cccnc2Oc2ccccc2F)n1`?
NPYLR7 ag: 1.7; NPYLR7 ag max-min: -2.2

How did CCN(CC(C)C)C(=O)c1ccccc1Sc1ccc(S(=O)(=O)NC)cc1 do in these assays?
NPYLR7 ag: 4.8; NPYLR7 ag max-min: 2.8

Results for CCOC(=O)CCCn1nc(C)n2c(cc3sccc32)c1=O ?
NPYLR7 ag: -5.8; NPYLR7 ag max-min: -3.3

How did CCOC(=O)COc1c(/C=C2/C(=N)N3N=C(c4cccs4)SC3=NC2=O)cccc1OC do in these assays?
NPYLR7 ag: -0.7; NPYLR7 ag max-min: -1.1

Results for Cc1nn(S(=O)(=O)c2ccccc2)c(C)c1S(=O)(=O)N(C)c1ccccc1 ?
NPYLR7 ag: 5.2; NPYLR7 ag max-min: 1.7

How did CC1CCc2onc(C(=O)Nc3nc4ccccc4n3C)c2C1 (stereo not drawn) do in these assays?
NPYLR7 ag: -1.8; NPYLR7 ag max-min: -3.8

Results for CCn1nnc2c(Nc3ccc(C)c(Cl)c3)ncnc21 ?
NPYLR7 ag: 5.2; NPYLR7 ag max-min: 11.4

How did COc1ccc(Cl)cc1N(CC(=O)NCCCC(C)(C)C1OCCO1)S(=O)(=O)c1ccc(C)c([N+](=O)[O-])c1 do in these assays?
NPYLR7 ag: 5.5; NPYLR7 ag max-min: 11.2

How did Cc1ccc(OCCC(=O)NC2CCc3[nH]c4ccc(Br)cc4c3C2)cc1 (stereo not drawn) do in these assays?
NPYLR7 ag: 16.3; NPYLR7 ag max-min: 11.8

How did CCS(=O)(=O)Oc1ccc(CN(C(C)C)S(=O)(=O)c2ccc(NC(C)=O)cc2)cc1 do in these assays?
NPYLR7 ag: -9.2; NPYLR7 ag max-min: -7.9

What do the screens show for `C[C@@H](NC(=O)C1=C[C@@H](Oc2cc(F)ccc2Br)[C@H](O)[C@H](O)C1)C(N)=O`?
NPYLR7 ag: -6.7; NPYLR7 ag max-min: -14.8

What do the screens show for `CC1CC1C(=O)OCC(=O)N1N=C(c2ccc(Cl)cc2)CC1c1ccco1` (stereo not drawn)?
NPYLR7 ag: 7.2; NPYLR7 ag max-min: 2.2

How did COc1ccc2[nH]c3c(c2c1)CCN(C(=O)c1cc(C(F)(F)F)ccc1F)C3c1ccccc1OC (stereo not drawn) do in these assays?
NPYLR7 ag: 27.6; NPYLR7 ag max-min: 14.6

How did C[C@H](NC(=O)NCCSC1Sc2ccccc2NC1=O)c1ccccc1 (stereo partly drawn) do in these assays?
NPYLR7 ag: 7.9; NPYLR7 ag max-min: 7.4

How did CC(NC(=O)c1cc2ccccc2[nH]c1=O)c1ccncc1 (stereo not drawn) do in these assays?
NPYLR7 ag: -2.2; NPYLR7 ag max-min: -5.0

Results for CC(=O)c1c(C)[nH]c(C(=O)C(C)Sc2nnc(-c3cccs3)n2C2CC2)c1C (stereo not drawn) ?
NPYLR7 ag: 0.0; NPYLR7 ag max-min: 4.7

How did Cc1cc(C)c2nc(N(CCn3cccn3)C(=O)C3CC3)sc2c1 do in these assays?
NPYLR7 ag: -18.8; NPYLR7 ag max-min: -19.9

What do the screens show for `O=C1OC(c2ccc(Cl)cc2)=N/C1=C\C(Cl)=C\c1ccccc1`?
NPYLR7 ag: -1.2; NPYLR7 ag max-min: -2.2

What do the screens show for `Cc1ccc(CN(Cc2ccccc2)C(=O)CN(CC(C)C)C(=O)Nc2ccccc2C(F)(F)F)o1`?
NPYLR7 ag: -4.6; NPYLR7 ag max-min: -1.0

What do the screens show for `CCn1cnnc1CCNc1nc(-c2ccncc2)nc2c1CCNC2`?
NPYLR7 ag: 4.2; NPYLR7 ag max-min: 1.3

How did O=C(/C=C/c1cnc[nH]1)NCc1ccccc1C(F)(F)F do in these assays?
NPYLR7 ag: 6.1; NPYLR7 ag max-min: 7.4

How did Cc1cc(N2CCOCC2)nc(Nc2ccc(NC(=O)CC(C)C)cc2)n1 do in these assays?
NPYLR7 ag: 11.6; NPYLR7 ag max-min: 4.2

What do the screens show for `O=C(O)CC1COCCN1C(=O)CC(=O)Nc1ccc(F)c(Cl)c1` (stereo not drawn)?
NPYLR7 ag: 10.5; NPYLR7 ag max-min: -2.7

Results for COc1cccc(CN2CCC2(C)C(=O)Nc2cccc(Br)c2C)c1F (stereo not drawn) ?
NPYLR7 ag: 6.0; NPYLR7 ag max-min: -2.3

What do the screens show for `c1ccc(NCc2ccc(CNc3ccccn3)cc2)nc1`?
NPYLR7 ag: -1.1; NPYLR7 ag max-min: -3.6

How did O=C(c1ccc2ccccc2c1)N1CCN(S(=O)(=O)c2ccc(F)cc2F)CC1 do in these assays?
NPYLR7 ag: -3.4; NPYLR7 ag max-min: -6.4

How did COc1cc(C)ccc1C(=O)NCC(C)(C)OC do in these assays?
NPYLR7 ag: 7.5; NPYLR7 ag max-min: 5.2

Results for COC(=O)C1C(=O)c2c([nH]c(C(=O)OC3CCCCC3)c2C)CC1C (stereo not drawn) ?
NPYLR7 ag: 4.9; NPYLR7 ag max-min: -2.8

What do the screens show for `CCOc1ccc(-c2ccnc(-c3ccco3)n2)cc1C(=O)O`?
NPYLR7 ag: -4.4; NPYLR7 ag max-min: -9.0

What do the screens show for `FC(F)(F)c1nc2n(n1)C(c1ccc(Cl)cc1)C1CSc3ccccc3C1=N2` (stereo not drawn)?
NPYLR7 ag: 1.7; NPYLR7 ag max-min: 1.7

What do the screens show for `CN(C)CCCO[C@@H]1[C@H]2OC(C)(C)O[C@H]2O[C@@H]1C(O)CO` (stereo partly drawn)?
NPYLR7 ag: 5.5; NPYLR7 ag max-min: -12.5

Results for COc1ccc(N2C(=O)CSC2c2cccc(NC(=O)c3ccc([N+](=O)[O-])cc3)c2)cc1 (stereo not drawn) ?
NPYLR7 ag: 6.8; NPYLR7 ag max-min: 6.8

Of the compounds above, eleven contain an NH in an aromatic ring.
Results for N#Cc1cccc(S(=O)(=O)N(Cc2c(F)cccc2Cl)c2cn[nH]c2)c1 ?
NPYLR7 ag: -2.0; NPYLR7 ag max-min: -18.0

How did CC(Sc1nc2c([nH]c3ccccc32)c(=O)n1C)c1ccccc1 (stereo not drawn) do in these assays?
NPYLR7 ag: 0.1; NPYLR7 ag max-min: 11.9

How did Cc1cc(C)n2c(=S)[nH]nc2n1 do in these assays?
NPYLR7 ag: -6.4; NPYLR7 ag max-min: -10.5

Results for CC(C)(C)c1nc(SCc2nnc(C(C)(C)C)o2)n[nH]1 ?
NPYLR7 ag: -1.5; NPYLR7 ag max-min: -1.9

What do the screens show for `CCN(Cc1noc(CC(C)C)n1)C(=O)c1cc2c([nH]c1=O)CCCC2`?
NPYLR7 ag: 3.3; NPYLR7 ag max-min: 0.6

How did Cc1ccc(OCCC(=O)NC2CCc3[nH]c4ccc(Br)cc4c3C2)cc1 (stereo not drawn) do in these assays?
NPYLR7 ag: 16.3; NPYLR7 ag max-min: 11.8

How did COc1ccc2[nH]c3c(c2c1)CCN(C(=O)c1cc(C(F)(F)F)ccc1F)C3c1ccccc1OC (stereo not drawn) do in these assays?
NPYLR7 ag: 27.6; NPYLR7 ag max-min: 14.6

How did CC(NC(=O)c1cc2ccccc2[nH]c1=O)c1ccncc1 (stereo not drawn) do in these assays?
NPYLR7 ag: -2.2; NPYLR7 ag max-min: -5.0

Results for CC(=O)c1c(C)[nH]c(C(=O)C(C)Sc2nnc(-c3cccs3)n2C2CC2)c1C (stereo not drawn) ?
NPYLR7 ag: 0.0; NPYLR7 ag max-min: 4.7

How did O=C(/C=C/c1cnc[nH]1)NCc1ccccc1C(F)(F)F do in these assays?
NPYLR7 ag: 6.1; NPYLR7 ag max-min: 7.4

Results for COC(=O)C1C(=O)c2c([nH]c(C(=O)OC3CCCCC3)c2C)CC1C (stereo not drawn) ?
NPYLR7 ag: 4.9; NPYLR7 ag max-min: -2.8
